# Source: PubChem (several laboratories)
# CSC inhib = blocks cancer stem cells | 300,000 tested, 1.1% active | inhibition, % at 7.5 µM | cancer stem cell-like cells viability, luminescence;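 active means mean at 75% or more and at least half the replicates too; inconclusive means mean and replicates disagree; tested in HMLE shEcad cells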;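 further: 0% = median of negative and 100% = median of positive control wells; the first replicate is given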
# eIF4H inh = inhibitors of RNA binding by human eIF4H | inhibition, % at 35 µM | Q15056 | eIF4H fluorescence polarization binding assay | 290,000 tested, 0.94% active;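 active means 50% or more with normal probe brightness, or confirmed in later tests; inconclusive means above 50% with abnormal brightness, or retests that disagree; inactive means below 50% or failed in later tests; about a fifth of its hits are not listed in these tables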;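 further: calls also rest on retests at 20 µM and on dose response follow-up; 0% = protein and probe with vehicle and 100% = probe without protein; strong numbers were not always called active; many hits fall short of the cut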
# MT1-MMP act inh = MT1-MMP (human) activation inhibition. P50281. GFP/RFP ratio change, % at 20 µM. HT1080 RFP-PRO-GFP cells, GFP/RFP ratio fluorescence, overnight; percent of plate control window, DMSO zero. 360,000 tested, 0.061% active;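 active means GFP/RFP ratio change of at least 30% with cell ATP level not reduced by more than half and red fluorescence within 50% of control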; further: strong numbers were not always called active
#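 Material – HT1080 RFP-PRO-GFP cells · Control set – DMSO wells and RFP-L50D-GFP cells · Incubation – overnight cell settling, then overnight compound exposure, 37 °C, 5% CO2 · Compound dosing – single-point 20 µM compound, 1% DMSO · Read-out – GFP/RFP fluorescence ratio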
# HIV Env fusion = inhibitors of HIV Env-mediated cell fusion | HeLa-JRFL Env/CEM21 cell fusion, luciferase | AID 651610 | inhibition, % at 12.3 µM | 360,000 tested, 1.1% active;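 active means mean replicate inhibition score of at least 50 and every replicate individually at or above 50; inconclusive means only one of the two criteria met; inactive means mean below 50 and not all replicates reaching 50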;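 further: 0% = plate neutral controls and 100% = maraviroc near 300 nM; one replicate is shown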
# PABP FP inh = blocks human PABP binding to poly(A) RNA | P11940 | fluorescence polarization | inhibition, % at 35 µM | 290,000 tested, 1% active | AID 2014;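 active means 50% or more with normal probe brightness, or confirmed in later tests; inconclusive means above 50% with abnormal brightness, or retests that disagree; inactive means below 50% or failed in later tests; about a fifth of its hits are not listed in these tables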;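 further: calls also rest on retests at 20 µM and on dose response follow-up; controls were probe without protein and protein plus probe with vehicle; some compounds called inactive have numbers as strong as hits; many hits fall short of the cut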
# UUG fidelity = alters start codon recognition fidelity in yeast; S. cerevisiae UUG-firefly luciferase reporter, luminescence/redox ratio; activity score, % at 18.7 µM; 350,000 tested, 0.13% active; AID 602363;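 active means replicate mean at a twofold rise or more, about +100% in these data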;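 further: firefly luciferase made from a UUG start codon reports start codon fidelity; reporter light over untreated wells divided by growth signal over untreated wells; some hits fall short of that in this replicate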
# Rce1 inh = inhibitors of yeast Ras-converting enzyme | Q03530 | yeast membranes, quenched prenylated peptide cleavage fluorescence | calls only | 290,000 tested, 0.27% active;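 active means fall in fluorescence gain of 50% or more versus controls, with final raw signal at or below 3038400; inconclusive means same 50% fall but final raw signal above 3038400; inactive means fall in fluorescence gain under 50%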;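 further: plate controls were neutral control wells for no effect and wells lacking membranes for full effect; tested at 10 µM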
# Target sequence (Q03530 whole entry, looked up): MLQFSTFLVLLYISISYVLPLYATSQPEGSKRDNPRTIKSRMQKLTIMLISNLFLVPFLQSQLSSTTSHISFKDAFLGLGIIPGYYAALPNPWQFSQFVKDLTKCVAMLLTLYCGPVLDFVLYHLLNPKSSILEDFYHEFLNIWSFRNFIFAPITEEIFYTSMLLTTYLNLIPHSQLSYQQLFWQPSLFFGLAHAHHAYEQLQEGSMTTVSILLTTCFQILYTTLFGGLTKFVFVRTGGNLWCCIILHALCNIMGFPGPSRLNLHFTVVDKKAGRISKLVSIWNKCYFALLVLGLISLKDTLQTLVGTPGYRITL
# eIF4H inh retest = further read-out of eIF4H inh, marked with its call; inhibition, %; compound at 20 µM; confirmation average;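 mean of two retest wells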
# PABP FP inh retest = also measured in PABP FP inh; calls as there; inhibition, %; compound at 20 µM; confirmation repeats;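 mean of two retest wells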
# MT1-MMP act inh RFP = further read-out of MT1-MMP act inh, marked with its call; RFP signal change, %; measured here: RFP expression control read;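 0 = vehicle wells; hits needed this value within 50% of zero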
# * = called active by the depositor; i = inactive; ? = inconclusive; . = no result given; & = joins results of further samples; [ ] = remark or other dose. The list is partial, so the mix of outcomes need not match the whole.
SMILES,CSC inhib,eIF4H inh,MT1-MMP act inh,MT1-MMP act inh RFP,HIV Env fusion,PABP FP inh,UUG fidelity,Rce1 inh,others
CSc1ccc(CCNC(=O)c2nn(C)c3c2CS(=O)(=O)c2ccccc2-3)cc1,3,-12,8,0,9,3,-7,i,
Nc1nnc(SCc2ccccc2F)s1,-11,4,6,2,-18,1,-16,i,
O=C(c1ccc(Br)o1)N1CCN(C/C=C/c2ccccc2)CC1,-2,2,7,5,28,-8,4,i,
O=C(OCc1cc(=O)n2ccsc2n1)c1ccc(OC(F)F)cc1,.,.,1,1,-121,.,-11,.,
O=C(COC(=O)c1ccccc1NCCO)Nc1cccc(S(=O)(=O)NC2=NCCCCC2)c1,-12,.,2,1,-17,.,-12,i,
Cc1cccc(N2C(=O)CC(N3CCC(c4nc5ccccc5[nH]4)CC3)C2=O)c1 (stereo not given),7,1,0,2,-61,-9,-27,i,
Cc1sc2ncnc(N3CCC(C(=O)N(C)CC(=O)Nc4ccccc4Br)CC3)c2c1C,-2,21,-5,-11,12,45,6,i,
Cc1ccc(C)c(SCC(=O)OCC(=O)NCc2ccccc2)c1,2,8,2,4,8,8,78,i,
COc1ccccc1NC(=O)C(C/C=C(/C)Cl)C(C)=O (stereo not given),-17,-4,0,2,-40,-1,1,i,
CC1=C(C)CC(C(=O)c2ccccc2)C(C(=O)O)C1 (stereo not given),-3,-2,-5,-1,.,-3,-15,i,

# Nothing new here: two of the compounds above.
SMILES,CSC inhib,eIF4H inh,MT1-MMP act inh,MT1-MMP act inh RFP,HIV Env fusion,PABP FP inh,UUG fidelity,Rce1 inh,others
COc1ccccc1NC(=O)C(C/C=C(/C)Cl)C(C)=O (stereo not given),-17,-4,0,2,-40,-1,1,i,
CC1=C(C)CC(C(=O)c2ccccc2)C(C(=O)O)C1 (stereo not given),-3,-2,-5,-1,.,-3,-15,i,

# The results go on:
SMILES,CSC inhib,eIF4H inh,MT1-MMP act inh,MT1-MMP act inh RFP,HIV Env fusion,PABP FP inh,UUG fidelity,Rce1 inh,others
O=C(COC(=O)Cn1cnc2ccccc2c1=O)NCCC1=CCCCC1,7,-2,-9,-2,5,-18,.,i,
CCOC(=O)c1c(NC(=S)SC)sc(C(=O)N2CCc3ccccc3C2)c1C,.,.,-2,-7,22,.,-5,.,
Cc1ccccc1S(=O)(=O)N1C[C@H]2CON(C)[C@H]2C[C@H]1c1cccc(-c2ccccc2)c1,.,.,-5,-7,-13,.,-4,.,
CN1CCc2c(sc(/N=C/c3cc(C(C)(C)C)ccc3O)c2C#N)C1,-1,113,-6,3,-8,22,.,i,eIF4H inh retest=2;PABP FP inh retest=18
CC(C)S(=O)(=O)N1CCCC(C(=O)c2cccc(Cl)c2)C1 (stereo not given),.,-4,1,-2,18,-2,.,i,
COc1ccc(OC)c(NC(=O)C2CCCC2)c1,-21,0,-4,-11,-71,7,-16,i,
CSc1nc(N(C)C)nc(N2CC(=O)N(CCNS(=O)(=O)c3ccc(C)cc3)C2=N)n1,-25,-2,4,2,13,-4,.,i,
O=C(Oc1cccc([N+](=O)[O-])c1)c1cc(-c2ccccc2)nc2ccccc12,-10,-6,-2,-3,-29,0,-7,i,
Cc1ccc(Sc2c(C=O)c3ccccc3n2C)cc1,-4,10,-18,-14,.,3,-14,i,
O=C1c2ccccc2C(=O)N1Cc1cc(-c2ccc(Cl)cc2)no1,-15,.,-2,-1,.,.,-13,i,
Cc1noc(C)c1COc1ccc(C(=O)N2CCN(c3ccccc3F)CC2)cc1,-9,.,2,3,3,.,.,i,
CCn1ncc(Br)c1C(=O)Nc1cc([N+](=O)[O-])ccc1C,-12,0,-8,-2,.,2,.,i,
CCCSc1ncc(Cl)c(C(=O)Nc2ccc(S(=O)(=O)Nc3ncccn3)cc2)n1,-8,-9,0,1,-5,6,-4,i,
CC(C)(CO)NCC(O)COc1ccc2c(c1)CCC2 (stereo not given),-8,-9,3,4,3,4,-15,i,
COc1ccc(CC(=O)NCc2cn3ccsc3n2)cc1,-10,6,2,4,.,0,-11,i,
Cc1[nH]c(SCC(=O)Nc2cc(C(N)=O)cc(C(N)=O)c2)nc1Cc1ccccc1,-9,.,1,4,3,.,-22,.,
O=C(NC1CCCC1)N[C@@H]1CC[C@@H](CC(=O)N2CCOCC2)O[C@@H]1CO,.,.,0,5,-9[16.7 µM],.,-12,.,
Cc1cc(-c2onc(C)c2C(=O)Oc2ccc(Cl)cc2)no1,-7,6,0,0,1,13,.,i,
O=C(N/N=C/c1ccco1)c1cc(C2CC2)nc2ccccc12,17,-1,.,.,-20,-2,.,i,
C[C@H](CO)N1C[C@H](C)[C@@H](CN(C)S(=O)(=O)c2ccc(F)cc2)Oc2ccc(NC(=O)NC3CCCCC3)cc2C1=O,.,.,-4,-5,2,.,2&4,.,

# Three structures already listed, arranged by molecular weight, largest number first.
SMILES,CSC inhib,eIF4H inh,MT1-MMP act inh,MT1-MMP act inh RFP,HIV Env fusion,PABP FP inh,UUG fidelity,Rce1 inh,others
Cc1[nH]c(SCC(=O)Nc2cc(C(N)=O)cc(C(N)=O)c2)nc1Cc1ccccc1,-9,.,1,4,3,.,-22,.,
O=C(N/N=C/c1ccco1)c1cc(C2CC2)nc2ccccc12,17,-1,.,.,-20,-2,.,i,
CC(C)(CO)NCC(O)COc1ccc2c(c1)CCC2 (stereo not given),-8,-9,3,4,3,4,-15,i,

# Next part:
SMILES,CSC inhib,eIF4H inh,MT1-MMP act inh,MT1-MMP act inh RFP,HIV Env fusion,PABP FP inh,UUG fidelity,Rce1 inh,others
COc1ccccc1N1C(=O)c2cccc3cccc(c23)C1=O,-5,-9,-1,2,-2,-21,-15,i,
CCOC(=O)c1cc(CC)sc1NC(=O)COC(=O)c1cc[n+]([O-])cc1,-9,-5,-2,-1,7,-8,.,i,
O=c1c2ccccc2nc2n1-c1ccccc1CCC2,0,-9,-6,0,-39,-6,-13,i,
CCc1ccc(C(=O)Nc2cc3c(cc2Cl)OCCCO3)cc1,-21,3,4,-3,.,-2,-9,i,
O=C(Nc1cccc(S(=O)(=O)N2CCCCC2)c1)C1CCCC1,-14,.,2,-3,6,.,0,.,
CCc1ccc(N=c2c([N+](=O)[O-])nn(-c3ccc4c(c3)OCCO4)n2O)cc1,.,-6,2,0,2,26,.,i,
Cc1nn(Cc2cccc(C(=O)Nc3ccn(Cc4ccccc4F)n3)c2)c(C)c1[N+](=O)[O-],-4,0,-4,-13,-6,-2,-15,i,
Cc1c(NC(=O)COC(=O)c2ncc(Cl)c(Cl)c2Cl)c(=O)n(-c2ccccc2)n1C,2,.,-2,-3,-10,.,-5,i,
C=CCNC(=O)c1ccc(CN(c2ccc(OCC)cc2)S(=O)(=O)c2ccc(C)cc2)cc1,64,-9,-7,-16,12,5,-5,i,
COc1ccc(/C=N/n2cnc3c([nH]c4ccc(F)cc43)c2=O)cc1CN1CCCC1,36,-11,-4,-1,4,-26,.,i,

# Continued, overlapping the part above by 2 compounds.
SMILES,CSC inhib,eIF4H inh,MT1-MMP act inh,MT1-MMP act inh RFP,HIV Env fusion,PABP FP inh,UUG fidelity,Rce1 inh,others
C=CCNC(=O)c1ccc(CN(c2ccc(OCC)cc2)S(=O)(=O)c2ccc(C)cc2)cc1,64,-9,-7,-16,12,5,-5,i,
COc1ccc(/C=N/n2cnc3c([nH]c4ccc(F)cc43)c2=O)cc1CN1CCCC1,36,-11,-4,-1,4,-26,.,i,
O=c1[nH]c(=S)[nH]cc1Oc1ccccc1,.,.,-3,0,-108,.,-11,.,
O=C(NC1CCCC1)C(c1cccnc1)N(Cc1ccccc1)C(=O)c1csnn1 (stereo not given),-15,-11,-1,-1,13,-8,-22,.,
CCN(CC)S(=O)(=O)c1ccc2c(c1)nc(SC(C)C(=O)NCC1CCCO1)n2CC (stereo not given),6,-5,-2,0,.,-7,-1,i,
O=C(CCN1C(=O)C2CCCCC2C1=O)Nc1ccc(Br)cc1F (stereo not given),10,.,0,3,-16,.,19,i,
CCc1cc(C(=O)N2CCN(c3ncccn3)CC2)sc1C,-11,.,-3,1,7,.,1,i,
O=C(CN1C(=O)C2CC=CCC2C1=O)OCc1cc(=O)n2cc(Br)ccc2n1 (stereo not given),-1,9,0,2,1,-4,.,i,
C[C@]12CC[C@@H]3c4ccc(O[C@@H]5O[C@H](C(=O)O)[C@@H](O)[C@H](O)[C@H]5O)cc4CC[C@H]3[C@@H]1C[C@@H](O)[C@@H]2O,-15,-7,-1,0,-3,25,-29,i,
O=C(Nc1ccc(-c2nc3ccccc3s2)c(OC(=O)c2ccccc2)c1)c1ccccc1,15,-5,3,4,8,-8,.,i,
C=CC(=O)NC(C)(C)CCN1CCOCC1,.,-2,-1,1,11,4,.,i,
Cc1ccccc1-c1cc2nc(NCc3ccccc3F)n(C)c(=O)c2s1,.,.,-2,-6,-5,.,-15,.,
CCOC(=O)CCNCC1COc2ccccc2O1 (stereo not given),-5,1,1,1,.,-1,-3,i,
CCn1cc(S(=O)(=O)CC(=O)Nc2ccc(C)cc2)c2ccccc21,.,-2,-1,1,-31,-11,-15,i,
COc1ccccc1CC1(C)NC(=O)N(CC(=O)N2CCc3ccccc3C2)C1=O (stereo not given),-7,-4,-2,3,-9,5,11,i,
O=C1N=C(N2CCN(c3cccc4ccccc34)CC2)S/C1=C/c1cccs1,.,-3,-1,0,.,-2,.,i,
CC(C)c1ccc(S(=O)(=O)NCCCN2CCOCC2)cc1,.,.,-3,-3,5,.,-12,.,
Cc1ccc(Cl)cc1N1CCN(CC(=O)Nc2ccc(CN3CCCCC3)cc2)CC1,-10,1,-8,-9,.,5,2,i,
Cc1cccc(CNC(=O)c2ccc3nc(Cc4ccccc4F)oc3c2)n1,-5,2,-3,0,43,-4,-14,.,
COc1cccc(/C=C/C(=O)c2ccc3c(c2)OCO3)c1OC,17,.,5,-1,.,.,-13,.,
C/C(=N/NS(=O)(=O)c1ccc(C)c(C)c1)c1ccncc1,-5,2,-1,-2,-13,-4,4,i,
O=c1c(Cl)c2oc3ccccc3nc-2c2ccccc12,6,?,-107,11,.,?,.,i,
O=C(Nc1cc(Cl)ccc1-n1cncn1)c1ccc([N+](=O)[O-])o1,-12,.,-6,0,9,.,-11,i,
Cc1nccc(-c2cccc(NC(=O)Nc3ccc(Cl)cc3)c2)n1,14,-3,4,-6,10,-1,.,i,
N/C(=N\OC(=O)COc1ccc2ccccc2c1)c1ccncc1,-6,-8,1,-10,.,3,5,i,
COc1cc([N+](=O)[O-])ccc1NC(=O)CSc1nccn1C,8,-17,4,3,-17,-6,-19,.,
COC(=O)c1ccccc1NC(=S)NC(=O)c1ccccc1,.,0,0,5,.,-5,-12,i,
O=C(COc1ccc(F)cc1Br)NCC1COc2ccccc2O1 (stereo not given),7,.,4,3,3,.,25,.,
COC(=O)c1sc2ccccc2c1NC(=O)c1cccs1,-15,-2,6,2,.,8,-9,i,
COc1ccc(S(=O)(=O)NCC(c2ccc3c(c2)OCO3)N2CCN(c3ccccc3)CC2)cc1 (stereo not given),.,.,-5,-2,-19,.,5,i,
